KCNQ2 pot: enhances the rat KCNQ2 potassium channel | O88943 | CHO-K1 KCNQ2, FluxOR thallium flux fluorescence; stronger effect = higher value | B-score at 10 µM | 0.54% of 310,000 active;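 active = fluorescence ratio B-score at least 3 SD of library B-scores, with initial fluorescence B-score within 3 SD, cut at about 5.3 in these data; same plate scores as AID 2156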;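 note: B-score of peak minus minimum over baseline fluorescence ratio after K+ and Tl+ stimulus; positive B-score means potentiation of KCNQ2 with more thallium influx and brighter signal; only the inactives scoring about 0 or higher are listed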
Target sequence (O88943 whole entry, looked up): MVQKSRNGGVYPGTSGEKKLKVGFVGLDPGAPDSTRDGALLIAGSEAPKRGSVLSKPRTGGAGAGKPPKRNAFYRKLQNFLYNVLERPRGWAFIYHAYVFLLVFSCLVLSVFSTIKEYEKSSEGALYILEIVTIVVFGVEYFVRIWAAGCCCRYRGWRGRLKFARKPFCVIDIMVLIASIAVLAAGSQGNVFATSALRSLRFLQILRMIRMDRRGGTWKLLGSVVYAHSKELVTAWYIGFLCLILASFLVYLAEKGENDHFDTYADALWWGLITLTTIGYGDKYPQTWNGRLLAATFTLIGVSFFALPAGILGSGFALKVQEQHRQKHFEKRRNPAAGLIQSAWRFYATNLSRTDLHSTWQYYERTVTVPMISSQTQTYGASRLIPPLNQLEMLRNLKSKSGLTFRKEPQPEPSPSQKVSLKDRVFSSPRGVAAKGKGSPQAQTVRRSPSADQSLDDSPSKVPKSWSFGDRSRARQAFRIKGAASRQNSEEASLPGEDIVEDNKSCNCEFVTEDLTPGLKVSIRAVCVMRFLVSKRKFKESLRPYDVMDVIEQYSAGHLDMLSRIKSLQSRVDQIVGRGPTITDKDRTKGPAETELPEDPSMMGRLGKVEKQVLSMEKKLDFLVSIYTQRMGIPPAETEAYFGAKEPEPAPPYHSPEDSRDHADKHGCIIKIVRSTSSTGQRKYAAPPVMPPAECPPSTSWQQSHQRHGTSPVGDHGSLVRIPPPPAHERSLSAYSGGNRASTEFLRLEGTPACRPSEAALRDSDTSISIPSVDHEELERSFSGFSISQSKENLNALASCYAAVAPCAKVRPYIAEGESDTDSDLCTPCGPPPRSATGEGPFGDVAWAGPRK
KCNQ2 pot baseline: also measured in KCNQ2 pot; calls as there; B-score; compound at 10 µM; measured here: initial fluorescence intensity artifact check;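 brightness before thallium and not channel activity; 0 = typical well and far values either way flag optical interference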
* marks the source's active call; other numbers are inactive results; . = no result given.

Structure,KCNQ2 pot,KCNQ2 pot baseline
CS(=O)(=O)N(CC(=O)O)c1ccc2c(c1)OCO2,0.03,-0.63
Cc1ccccc1C(=O)N1CCN(c2ccc(NC(=S)NC(=O)c3cccs3)cc2)CC1,0.25,-0.54
O=C(COc1ccc2ccccc2c1Br)N1CCCC1,2.3,2.9
COc1ccc2oc(=O)c(C(=O)OCC(=O)c3ccc([N+](=O)[O-])cc3)cc2c1,0.45,-0.41
N/C(=N\OC(=O)/C=C/c1ccccc1Cl)c1ccccn1,0.49,-0.18
O=C(CCNS(=O)(=O)c1ccc(Cl)cc1)N1CCCC1,0.3,-0.25
CC1CCN(Cc2csc(N)n2)CC1,0.08,0.27
COc1cccc(N2CCN(S(=O)(=O)c3ccc4c(c3)NC(=O)C(C)C(=O)N4)CC2)c1 (centres undefined),0.46,0.94
COC(=O)c1ccccc1S(=O)(=O)N1CCC(NC(=O)c2ccccc2)CC1,0.2,-0.89
CCCCNC(=O)COC(=O)c1c2c(nc3ccccc13)CCC2,0.31,-0.05
CC(CCc1ccccc1)NC(=O)C1CCN(S(=O)(=O)c2cnc[nH]2)CC1 (centres undefined),0.58,0.51
COC(=O)Cc1csc(N)n1,0.45,.
O=C(COC(=O)Cc1ccccc1[N+](=O)[O-])Nc1nnc(-c2ccccc2)o1,0.5,-2
COc1ccc(CNC(=O)CNS(=O)(=O)c2cccs2)cc1,0.33,0.03
Cc1ccc(NC(=O)CCn2c(=O)oc3ccccc32)c(C)c1,0.65,-0.83
COc1cc(Br)cc(/C=N/N(CCO)C2=NS(=O)(=O)c3ccccc32)c1OC,1.7,-0.22
COc1ccccc1-c1nnc(SCC(=O)Nc2ccc(S(N)(=O)=O)cc2)n1N,0.29,-2.3
CCCCc1cc(=O)oc2cc(C)cc(OCC(=O)N3CCC(C(N)=O)CC3)c12,0.01,0
O=C(Cc1ccc([N+](=O)[O-])cc1)N1N=C(C2CC2)CC1(O)C(F)(F)F (centres undefined),0.89,0.57
CCc1nc(Nc2ccccc2)c2nnn(Cc3ccccc3)c2n1,0.48,-0.2
CC(C)c1ccc(/C=C(\NC(=O)c2ccccc2)C(=O)NCCCn2ccnc2)cc1,0.05,2.4
O=C(Nc1cccnc1)c1ccc(S(=O)(=O)N2CCCCCC2)cc1,0.12,-0.68
O=C(N/N=C/c1cccc(OCc2ccccc2)c1)c1cccs1,0.79,2.3
CCOC(=O)Cc1csc(SCC(=O)NC2CCCCC2)n1,0.55,0.67
CC1(C)Cc2nc3sc4c(SCC(=O)O)ncnc4c3cc2CO1,0.03,-2.4
Cc1c(C(=O)NNC(=O)Nc2ccc([N+](=O)[O-])cc2)oc2ccccc12,0.22,-1.5
CCN(CC)S(=O)(=O)c1ccc2c(c1)N(CC(=O)NCCN1CCOCC1)C(=O)CO2,0.9,-0.1
CC1(OC(=O)c2cccs2)C(=O)C=C2C=C(C3CC3)OC=C2C1=O (centres undefined),0.49,-0.11
CCOc1cc2[nH]c(=O)n(Cc3ccc(C(=O)NCCCN4CCCC4=O)cc3)c(=O)c2cc1OCC,0.62,-0.08
N#C/C(=C\c1ccccn1)c1ccccn1,0.96,-1.1
COc1ccc(C(=O)N2CCN(c3ccccn3)CC2)cc1[N+](=O)[O-],0.39,-0.63
COCCCNc1nnc(Cc2ccccc2)c2ccccc12,0.31,0.95
CCOC(=O)c1cn2nc(Oc3ccc(NC(C)=O)cc3)ccc2n1,1.4,-0.27
Cc1ccc(NC(=O)COC(=O)/C=C/c2cccc(Cl)c2)cc1S(=O)(=O)N1CCOCC1,0.31,1
CNS(=O)(=O)c1cccc(C(=O)OCC(=O)Nc2ccc(N3CCCCC3)cc2)c1,0.13,0.36
Cn1c(CCN2CCCCC2)nc2cc(NC(=O)COc3ccccc3)ccc21,0.14,-1.3
Cc1ccc(-c2nc(N)n(S(=O)(=O)c3ccc(C)cc3)n2)cc1,0.61,0.48
COC(=O)c1c(NC(=O)CSc2nnc(CNc3ccc(Cl)cc3)o2)sc(C)c1C,0.02,0.02
CCOC(=O)c1cc2c(=O)n3cccc(C)c3nc2n(CC(C)C)c1=NC(=O)c1ccco1,0.47,1.7
COC(=O)C1=C(C)OC(N)=C(C#N)C1c1ccco1 (centres undefined),1.3,0
O=C(CNS(=O)(=O)c1ccccc1)NCC(=O)OCc1ccccc1F,0.56,0
CCN(CC)S(=O)(=O)c1cc(C(=O)OCC(=O)NC(=O)c2cccn2C)ccc1C,1,-0.33
CN(/C=C/c1c([N+](=O)[O-])c(=O)n(C)c(=O)n1C)c1ccccc1,2.1,0.01
O=C(/C=C\c1cccs1)N1CCN(Cc2ccc3c(c2)OCO3)CC1,0.55,1.8
CCC(=O)Nc1ccc2c(c1)nc1n2CCSC1,0.03,-1.1
COc1cc(OC)c(C(=O)OCC(=O)NCCc2ccccc2)cc1OC,0.92,-1.3
CCCNC(=O)C1CC(c2cccc(F)c2)=NO1 (centres undefined),1.2,-1.6
C=CCn1c(N/N=C/c2ccc(O)cc2)nc2ccccc2c1=O,1.5,-1.7
Cc1cccc(C(=O)OCC(=O)Nc2nnc(-c3ccccc3)o2)c1O,0.59,-0.37
CC(C)c1ccc(NC(=O)N2CCc3ccccc3C2)cc1,1.7,0.4
COc1cc(/C=C/C(=O)O)cc(OC)c1,0.21,-0.78
CCOC(=O)C1=C(Nc2ccc(C)cc2)CC(C)(O)C(C(=O)OCC)C1c1ccccc1 (centres undefined),0.72,0.75
CCOC(=O)c1cn(CC)c2cc(N3CCOCC3)c(F)cc2c1=O,2.2,-0.33
COc1ccc(-n2ncc3c(NCC(C)C)ncnc32)cc1,1.3,-2.8
COCCSc1ccccc1C(=O)NCc1cccnc1,0.75,-0.74
Cc1c(C)n(CCC(=O)O)c2ccccc12,0.42,-1.8
CC(=O)CC(C)(C)S(=O)(=O)c1ccc(Oc2ccc(S(=O)(=O)C(C)(C)CC(C)=O)cc2)cc1,1.8,-0.99
Oc1ccc(/C=N/Nc2nc(-c3cccnc3)nc3ccccc23)c(O)c1,0.54,-1
COc1ccc(/C=N/NC(=O)c2ccc(CSc3nncn3C)cc2)cc1OC,0.84,-0.19
O=C(CSc1nc2ccccc2o1)N/N=C/c1ccc(O)c(O)c1,1.5,-0.41

Complete entries, quoted from the list. Order of screens: KCNQ2 pot | KCNQ2 pot baseline
O=C(COC(=O)Cc1ccccc1[N+](=O)[O-])Nc1nnc(-c2ccccc2)o1 across the screens: 0.5 | -2
CCOC(=O)c1cc2c(=O)n3cccc(C)c3nc2n(CC(C)C)c1=NC(=O)c1ccco1 across the screens: 0.47 | 1.7
CCCNC(=O)C1CC(c2cccc(F)c2)=NO1 (centres undefined) across the screens: 1.2 | -1.6
O=C(CCNS(=O)(=O)c1ccc(Cl)cc1)N1CCCC1 across the screens: 0.3 | -0.25
CC1(C)Cc2nc3sc4c(SCC(=O)O)ncnc4c3cc2CO1 across the screens: 0.03 | -2.4

Continued:
Structure,KCNQ2 pot,KCNQ2 pot baseline
CNC(=O)NC(=O)C(OC(=O)Cc1cccc(C(F)(F)F)c1)c1ccccc1 (centres undefined),0.12,-0.28
COCCN(CCOC)S(=O)(=O)c1ccc(C(=O)Nc2nnc(COC)o2)cc1,0.49,1.6
Cn1nc(OCC(N)=O)ccc1=O,0.09,-0.24
C/C(=N\Nc1ccc(Cl)c(C(=O)O)c1)c1ccc2c(c1)OCO2,0.08,-0.62
O=C(Nc1nsc(-c2ccccc2)n1)c1ccncc1,0.49,0.5
Cc1cc(OCC#N)nc(N)n1,2.3,-1.9
Cc1ccc(-c2cc(-c3n[nH]c(=S)n3C)c3ccccc3n2)cc1,0.27,-0.63
COc1ccc(S(=O)(=O)NCCC(=O)NC2CCCCCCC2)cc1,2.3,-1.4
COc1ccccc1CN1[C@@H](CC(C)=O)c2cc(C(F)(F)F)ccc2S1(=O)=O,0.01,-0.81
CC(C)Cc1c2c([nH]c(=S)c1C#N)CCCC2,1.2,-0.08
Cc1cc(NC(=O)CN(C)S(=O)(=O)c2cccc(Cl)c2)no1,0.13,-0.52
COc1ccc(C(=O)N2CCN(Cc3ccc(OC)c(OC)c3)CC2)cc1,0.81,-0.15
Cc1nc2ccc(NC(=S)NCc3ccccc3)cc2nc1C,1,-0.01
COc1cc(C(N)=O)ccc1OCc1ccccc1,0.14,-0.78
Cc1ncc(S(=O)(=O)c2ccccc2)c(-c2ccccc2Cl)n1,0.25,-0.58
O=C(Nc1cc([N+](=O)[O-])ccc1O)c1cccc(NC(=O)c2ccco2)c1,0.08,-1.9
CC(=O)C1C(c2ccc(O)cc2)NC(=O)NC1(O)C(F)(F)F (centres undefined),2.1,-0.5
Cc1ccc(C)c(NC(=O)CSc2nnc(C)c(=O)n2N)c1,0.34,0.05
COc1ccccc1N1CCN(C(=O)COc2ccc(S(=O)(=O)NC(C)(C)C)cc2)CC1,0.61,-0.51
CCOC(=O)Cc1csc(NC(=O)CCCN2C(=O)c3ccccc3C2=O)n1,0.41,0.57
Cc1nnc(SCC(=O)N2CCOCC2)s1,1.3,0.51
C=CCn1c(SCC(=O)N2CCN(CCO)CC2)nc2sc3c(c2c1=O)CCC3,0.84,-0.18
O=C(COC(=O)/C=C/c1cccs1)Nc1ccccc1Cl,0.67,-0.03
CCOc1ccc(C2/C(=C(\O)c3ccc4c(c3)OCCO4)C(=O)C(=O)N2CCCN2CCOCC2)cc1 (centres undefined),0.25,0.01
CN(C)CCC1CCN(c2cc(C#N)c(C#N)cc2[N+](=O)[O-])CC1,1.2,0
CN1C(=O)[C@@H]2[C@H](C1=O)[C@@H]1C(=O)Nc3ccccc3C(=O)N1[C@@H]2c1ccc(F)cc1,0.35,0.96
CCCn1c(SCC(=O)NC2CCCc3ccccc32)n[nH]c1=O (centres undefined),0.06,-2.2
O=C(O)c1ccc2c(=O)[nH]c(CN3CCOCC3)nc2c1,1.6,0.45
Cc1[nH]c2ccccc2c1/C=N/NC(=O)c1cc(C(C)C)[nH]n1,0.03,-0.95
c1ccc(Nc2nc(N3CCCC3)nc(N3CCOCC3)n2)cc1,0.64,1
Cc1ccc(/C=N/NC(=O)c2ccc(Cn3cc([N+](=O)[O-])cn3)o2)cc1,0.2,-0.04
COc1ccc(OC)c(Nc2nc(N(C)c3ccccc3)nc(N)c2[N+](=O)[O-])c1,0.16,-1.3
OCC[C@@H]1C[C@@H](O)[C@H](O)[C@]2(CCCO2)O1,0.81,2.2
Cc1ccc(NC(=S)c2ccncc2)cc1,0.12,1.2
CCC(=O)N(Cc1ccco1)Cc1cc2cc3c(cc2[nH]c1=O)OCO3,0.91,0
CCC(CC)c1nnc(NC(=O)CCS(=O)(=O)Cc2ccccc2)s1,0.2,-0.11
CCOC(=O)c1sc2ccc(S(=O)(=O)N3CC(C)CC(C)C3)cc2c1N (centres undefined),0.28,-0.5
Cn1c(=O)cc(OCCCC(=O)NCc2ccccn2)c2ccccc21,1.1,1.8
CSc1ccc(CN2CCCCCC2)cc1,0.13,-1.3
Cn1c(Cn2nnc3ccccc32)nnc1SCC(=O)c1ccccc1F,0.6,-2.1
COC(=O)c1ccccc1-n1c(CCC(=O)O)ccc1-c1ccccc1,0.62,-2.8
COC(=O)CCC(=O)c1oc2ccc(OC)cc2c1N,1.5,0.3
COc1ccc2oc(C(=O)OCC(=O)NCCc3ccccc3)c(C)c2c1,0.22,0.28
CCOC(=O)c1c(-c2ccc(C)cc2)csc1NC(=S)NC(=O)c1ccccc1,0.69,-1.2
Nc1nonc1-c1noc(-c2ccccc2)n1,0.49,-1.4
Cc1ccc(/C=N/Nc2ncnc3nc[nH]c23)cc1,0.01,-2.1
CC(c1ccccc1)n1cc(C(=O)NCc2ccncc2)nn1 (centres undefined),1.1,-2.4
CC(C)(C)N1CC(COc2ccccc2)OC1=O (centres undefined),0.32,1.9
S=c1[nH]c2cc(Br)cnc2[nH]1,0.15,-1.4
O=C(c1cc(-c2ccc(F)cc2)no1)N1CCN(Cc2ccc3c(c2)OCO3)CC1,1.4,2.3
CCOC(=O)N1CCN(C(=O)Nc2cccc(Cl)c2)CC1,0.39,1.2
Cn1c(N2CCOCC2)c(/C=N/OC(=O)c2cccnc2Cl)c2ccccc21,0.66,-0.01
CCn1cc(CNC(=O)c2cccc([N+](=O)[O-])c2)cn1,1.4,-0.66
CCC(NC(=O)NC1CCCCC1)c1ccccc1 (centres undefined),19*,0.09*
O=C(O)c1cc(N2C(=O)C3CCCCC3C2=O)ccc1NCc1cccnc1 (centres undefined),1.7,0.14
CCOc1ccc(Cc2noc3c2C(=O)CCC3)cc1OCC,0.02,-0.86
CN(C)C(=O)Cn1c(=O)n(C)c2ccccc21,1.7,-1.2

Bioassay records (PubChem)

These rows are one share of the data. The share of hits here may be higher or lower than overall.
